# Tgondii IFNg = inhibitors of Toxoplasma gondii growth with IFN-gamma; activity change, negative = inhibition, %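 (about 20 µM by stock and volumes)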; Toxoplasma gondii growth in IFN-gamma-treated host cells; hits give low values; reference of the scale not given here; actives 3.8% (n = 69,000);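 active = below -70%; inconclusive = fit judged invalid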;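 note: host cells are HeLa cells infected with Toxoplasma gondii; parasite growth read as luciferase light; one replicate is shown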
# * = called active by the depositor; i = inactive; ? = inconclusive; & = joins results of further samples. An excerpt; the hit share may differ from the screen's.
no.	SMILES	Tgondii IFNg
1	CCc1c(C)sc2c1CCN(Cc1nc(-c3ccc(OC)cc3OC)oc1C)C2c1ccccc1 (stereo not drawn)	-12.0
2	CO[C@H]1COC[C@@H]1NC(=O)C1(Oc2ccc(Cl)cc2)CCNCC1	-1.6
3	COCC1(C(=O)N2CCN3C(=O)CN(C)C(=O)C3C2)CCC1 (stereo not drawn)	-2.5
4	O=C(C1CC1)N1CCc2c(ncnc2NCc2ccccc2-n2ccnc2)C1	26.9
5	CC(=O)N1CCC2(CC1)OC(=O)C(C)=C2C(=O)Nc1ccccc1Cl	25.3
6	COc1ccc(S(=O)(=O)Nc2cccc3c2O[C@@H](CN(C)CC2CCCCC2)[C@H](C)CN([C@@H](C)CO)C3=O)cc1	-26.6
7	Cn1c(SCc2ccc(-c3csnn3)cc2)nnc1C(F)(F)F	-40.5
8	Cc1nc(SCCNC(=O)[C@H]2CCCO2)n[nH]1	2.1
9	CN(Cc1ccccc1-n1cccn1)C(=O)c1cn2ccccc2n1	4.4
10	CCN1c2cc(C)ccc2-n2cccc2C12CCN(C(=O)Nc1cc(Cl)c(OC)cc1OC)CC2	-47.2
11	O=C(c1cccnc1)N1CCC(c2cc(=O)[nH]c(-c3cnccn3)n2)CC1	6.8
12	CCOc1ccc(C2c3[nH]c4ccccc4c3CCN2C(=O)c2ccc(C)cc2)cc1 (stereo not drawn)	-95.0*
13	O=C(C[C@@H]1CC[C@H]2[C@@H](COC[C@@H](O)CN2C(=O)c2cccnc2)O1)NCC1CC1	-28.1
14	CCn1cc(Cn2ccnc2-c2cc(C#CCO)cs2)cn1	5.0
15	O=C(c1cccnc1-c1ccc2c(c1)OCCO2)N1CCCC1	3.8
16	CC(NC(=O)C1CSC(c2ccncc2)=N1)c1cc(=O)[nH]c(N2CCCC2)n1 (stereo not drawn)	8.9
17	O=C1c2ccc(-c3nc4ccccc4c(=O)o3)cc2C(=O)N1c1nccs1	-2.4
18	CSCc1ccc(C(=O)NCCn2ncc3ccccc3c2=O)o1	-7.3
19	CCn1nc2c(c1C(=O)Nc1nnc(-c3ccc(OC)c(OC)c3)s1)CCCC2	-0.2
20	O=C(CSc1nnnn1-c1ccc2ccccc2c1)NCc1ccco1	48.1
21	CC(c1ccc(-c2ccc3nc[nH]c3c2)cc1)N1CCOCC1 (stereo not drawn)	8.4
22	CCN(C(=O)CCC(=O)N1CC(=O)Nc2ccccc21)C1CCN(C)CC1	2.9
23	Cc1ccc(NC(=O)Cn2ccc3ccc(-c4nnc(C)o4)cc32)nc1	5.3
24	COc1ccc(C)cc1-n1c(SCC(=O)O)nnc1C(C)OC (stereo not drawn)	18.6
25	CN(C)CC(=O)N1[C@@H](C#N)[C@@H](c2ccc(C#CC3CCCCC3)cc2)[C@@H]1CO	-31.6
26	Cc1cc(Cc2ccc(F)cc2)nc(C2CCNCC2)n1	4.7
27	COc1cccc(C(=O)Nc2ccc3c(c2)C(=O)N(C)[C@H]2CC[C@H](CC(=O)N[C@@H](C)c4ccccc4)O[C@H]2CO3)c1	-30.6
28	CCS(=O)(=O)N1Cc2cc(C(=O)NCCOC)nc(-c3cccc(-c4ccncc4)c3)c2[C@@H]1CCO	-18.8
29	CCN(C(=O)c1cc2cccnc2n(Cc2ccc(Cl)cc2)c1=O)C1CCCCC1	92.2
30	CC(C)(C)c1csc(NC(=O)Nc2ccc(Cl)cc2)n1	-102.6*

# Later entries
no.	SMILES	Tgondii IFNg
31	COCCC(=O)N1CCC(C2Nc3ccccc3S(=O)(=O)N2)CC1 (stereo not drawn)	13.9
32	CCc1cccc(NC(=O)CCC(=O)N2CC3C[C@@H]4CC2C[C@H](C3)C4)c1	7.8
33	C[C@@H](NC(=O)C[C@@H]1CC[C@H]2[C@@H](COc3ccc(NC(=O)C4CCOCC4)cc3C(=O)N2C)O1)c1ccccc1	11.8
34	Cc1cc(F)ccc1S(=O)(=O)NCCc1csc(-c2ccc(F)cc2)n1	-33.0
35	O=C(CN1CCN(Cc2ccccc2)CC1)N1CCCc2c1c(=O)oc1ccc(O)cc21	-29.6
36	CN(C)C(CNC(=O)c1ccc(-n2cnnc2)cc1)c1cccc(Cl)c1 (stereo not drawn)	-13.0
37	CCN(CC)C1CCN(Cc2cc3ccc(Cl)cc3[nH]c2=O)C1 (stereo not drawn)	-1.0
38	CN(C)CCN1CCN2CC(C(=O)O)CN(Cc3ccco3)CC2C1 (stereo not drawn)	12.6
39	O=C(c1ccc[nH]1)N1C[C@@H](c2ccccc2)[C@@]2(CCNC2=O)C1	-37.8
40	COc1ccc(-c2cc(C(N)=O)ccn2)cn1	62.2
41	CC(=O)c1ccc(-c2ccccc2OC(F)(F)F)o1	24.5
42	CCOC(=O)Cc1csc(-c2ccc(Cl)cc2)n1	33.1
43	CCN1C(=O)CCc2cc(NS(=O)(=O)c3ccccc3Cl)ccc21	28.0
44	Cc1cc(-c2c(-c3ccccc3)ncn2CCNc2ccccc2)n[nH]1	1.1
45	CN1CC2(CCN(C(=O)c3ccn(C(C)(C)C)c3)C2)OC1=O (stereo not drawn)	-65.8
46	O=C1COc2cc3c(cc2N1)C(c1cc(F)ccc1-n1cccn1)CC(=O)N3 (stereo not drawn)	-20.0
47	COc1ccc2[nH]cc(CCN3CC(C(=O)Nc4ccc5c(c4)CCC5)CC3=O)c2c1 (stereo not drawn)	i
48	COC(=O)c1[nH]c2cscc2c(=O)c1C(=O)OC	11.6
49	COc1ccc(CN2CCc3nc(SCc4nc(-c5cccc(C)c5)oc4C)[nH]c(=O)c3C2)cc1	-27.3
50	CCN(CCCNC(=O)C1=C(C)C(=O)OC12CCN(S(C)(=O)=O)CC2)Cc1ccccc1	-1.4
51	O=C1CCCN1[C@@H]1CN(Cc2nccs2)C[C@H]2CCCO[C@H]21	189.0
52	CS(=O)(=O)c1cncnc1C1CCCN(C(=O)Cc2ccc3c(c2)OCO3)C1 (stereo not drawn)	-19.5
53	COCCN(Cc1ccc(C)cc1)C(=O)c1ccc(N(C)S(C)(=O)=O)cc1	-6.6
54	Cc1nc(NS(C)(=O)=O)sc1C(=O)N[C@@H]1CCC(=O)N[C@H]1c1cccs1	22.9
55	Cc1ccc(N2CCCC2=O)cc1S(=O)(=O)NC(=O)C1Cc2ccccc2CN1 (stereo not drawn)	27.7
56	COCCSc1ncc(-c2cccc(F)c2)c(C2CCN(C(=O)/C=C/c3ccccn3)CC2)n1	-28.9
57	O=C(Cn1nnc(-c2ccc(Cl)cc2)n1)NCCc1ccc2c(c1)OCO2	-1.5
58	c1cc(C23CC4CC(CC(C4)C2)C3)ccc1OCCN1CCCCC1	?
59	CSc1nc2c(ccc3ccccc32)o1	8.1
60	CCCN1CCCN(C(=O)c2coc(COc3cccc4cnccc34)n2)CC1	10.4

# The listing continues:
no.	SMILES	Tgondii IFNg
61	O=C(NC1CCN(Cc2cccc(O)c2)CC1)c1ncn[nH]1	-1.3
62	CCOc1ccc(S(=O)(=O)N2CCC(c3nc(C(=O)N4CCCC4)c(C)o3)CC2)cc1	-1.5
63	CC(C)CCNC(=O)CN(C(=O)CCC(=O)Nc1ccccn1)c1ccc2c(c1)OCO2	-9.2
64	Cc1nc(C)c(C(=O)N2CCC(O)(Cn3ccc4nc(-c5ccncc5)ccc43)CC2)s1	-22.9
65	Cc1cccnc1C(C)Nc1nc(CCN)nc2sc(C)c(C)c12 (stereo not drawn)	-26.5
66	Cc1ccc(OCC(=O)N2CCc3ccccc3C2)cc1C	8.4
67	CCN1CC2(CCN(C(=O)C3CCOCC3)CC2)COc2ccccc2S1(=O)=O	-2.3
68	NC1(C(=O)N2CCC(c3cc(-c4ccccc4Cl)n[nH]3)CC2)CCC1	-6.1
69	CC(C)(C)OC(=O)N1CCN(c2cccnc2)CC1C(=O)O (stereo not drawn)	-9.2
70	O=C1CC2(CCCC2)CC(=O)N1CCCCNCC1COc2ccccc2O1 (stereo not drawn)	15.1&15.7
71	COCCN1Cc2ccnn2CC(COCc2cccnc2)C1 (stereo not drawn)	1.2
72	COc1cccc(Cn2c(CCn3cccn3)n[nH]c2=O)c1	-1.8
73	CN(C)CCN1CCOC2CCN(C(=O)c3ccoc3)CCC21 (stereo not drawn)	179.5
74	OCCCc1cn(-c2ccccc2)c2ccccc12	7.4
75	CCc1onc(C)c1C1CCCN1Cc1cn(CC)c2ccccc12 (stereo not drawn)	-15.7
76	C[C@@H]1CC=CC[C@H](c2ccc3c(c2)OCO3)NC(=O)[C@H](C)N(C)C(=O)c2ccccc2O1 (mixture of isomers)	-45.8
77	O=C(c1cc(CN2CCOCC2)on1)N1CCOc2ccc(Cl)cc2C1	-11.7
78	CNc1ncc(-c2ccc(OC)nc2OC)c(-c2ccc(C)cc2)n1	7.7
79	Cc1ccc(-c2cnc3ccccc3n2)cc1NC(=O)c1ccc(Br)o1	324.8
80	O=C(C[C@H]1CC[C@H]2[C@@H](COC[C@H](O)CN2C(=O)Nc2ccccc2)O1)NCc1ccccc1F	-8.9
81	CO[C@H]1CC[C@@H]2[C@H]1OCCN2C(=O)CCOc1ccccc1	14.8
82	CO[C@@H]1CN(C)C(=O)c2ccc(NS(C)(=O)=O)cc2OC[C@@H](C)N(C(=O)CN(C)C)C[C@H]1C	48.3
83	Cc1ccc(C2(O)CCN(c3nccc(N4CCC(O)C4)n3)CC2)nc1 (stereo not drawn)	-8.6
84	Cc1cc(C)c(S(=O)(=O)N2CCc3nc(-c4ccccc4)sc3C2)cc1C	-89.2*
85	Cc1ccc(NC(=O)CN2CCC3(CC2)N=C(c2ccc(C)c(C)c2)C(=O)N3)c(C)c1	70.8
86	CS(=O)(=O)N1CCOC2(CCNCC2)c2ccccc21	140.6
87	COc1cc(OC)c2c(c1Cl)OC1(C(=O)CC(=O)CC1C)C2=O (stereo not drawn)	6.9
88	COc1cccc(CC(=O)N[C@@H]2c3ccccc3C3(CCNCC3)[C@H]2O)c1	4.6
89	Cc1noc(C)c1NC(=O)Nc1ccc2c(c1)C(=O)N(C)[C@@H]1CC[C@H](CC(=O)N[C@H]3CCN(Cc4ccccc4)C3)O[C@H]1CO2	8.6
90	COc1cccc(C(=O)N2CCC3(CC2)OC(C(N)=O)Cn2ccnc23)c1 (stereo not drawn)	-0.8

# Going on with the list.
no.	SMILES	Tgondii IFNg
91	O=C1CC2(CCN(c3ccncn3)C2)CN1c1ccc(F)c(F)c1 (stereo not drawn)	189.9
92	Cc1ccc(CNC(=O)Nc2ccc(-c3nc(-c4ccc(C)cc4C)co3)cc2)cc1	17.0
93	COc1ccc(C#Cc2ccc([C@H]3[C@H]4CN(C(=O)NC(C)C)CC(=O)N4[C@H]3CO)cc2)cc1	-42.3
94	COc1ccc(CCNc2nc(SCc3cccc(Cl)c3)nc3ccccc23)cc1OC	-55.6
95	COCCNC(=O)C1CCCN(C2CCN(C(=O)c3ccc(F)cc3)CC2)C1 (stereo not drawn)	4.3
96	Cc1cc(C)cc(CN2CCN(Cc3cnn(C)c3C3CC3)CC2=O)c1	-7.5
97	Cc1cccc(Cc2c(C)oc3c(c(N)nn3-c3nc4ccccc4s3)c2=O)c1	163.5
98	Cn1c2ccc(CC(=O)O)cc2c2cc(CC(=O)O)ccc21	0.3
99	O=C(Nc1ccc2sc3ccccc3c(=O)c2c1)c1cc(F)c(F)cc1Cl	-16.3
100	Cn1nnc(-c2ccc(C(=O)NC(CN3CCCCC3)c3ccccc3)cc2)n1 (stereo not drawn)	-0.4
101	CCOc1cc(CCC(=O)Nc2ccc3[nH]c4c(c3c2)CCCC4)on1	0.4
102	O=C(c1nc(-c2cccc(F)c2)n2c1CCCCC2)N1CCN(c2ccccc2)CC1	-11.9
103	OCCn1c(-c2cccc3cccnc23)nc2ccccc21	3.9
104	O=C(Nc1ccccc1F)N[C@@H]1CC[C@H](CCNC(=O)C2CC2)O[C@H]1CO	-22.6
105	CCN1c2ccc(C)cc2C(=O)NC12CCN(C(=O)Cc1cccc(OC)c1)CC2	-26.6
106	FC(F)(F)c1cc(C2CCNCC2)nc(-c2ccsc2)n1	-25.4
107	CCOC[C@@H]1CCC[C@]12CN(C(=O)c1sccc1C)CCO2	-3.1
108	CCN1c2ccccc2-n2cccc2C12CCN(C(=O)Nc1ccccc1C)CC2	-82.2*
109	CCc1ccccc1NC(=O)c1c(O)c2ccccc2[nH]c1=O	44.0
110	CCCc1cncnc1-c1cc(C)ccc1OC	12.6
111	O=C(Nc1ccc(C(F)(F)F)cc1)N[C@@H]1C=C[C@H](CC(=O)N2CCCCC2)O[C@@H]1CO	-53.4
112	CCS(=O)(=O)N1Cc2[nH]nc(COCc3cccnc3)c2C1	5.8
113	Cc1nc(Cn2ccnc2-c2nc[nH]c2C)nc2c1CCCC2	0.1
114	CS(=O)(=O)N1C[C@H]2COC[C@@H](C(=O)N3CCCO3)[C@H]2C1	14.4
115	Cc1cc(Cl)ccc1NC(=O)Cn1ncc2c(N3CCCCCC3)ncnc21	167.6
116	Cc1nc(C(C)N(C)C(=O)NC2CCCC2)c(C)s1 (stereo not drawn)	-0.2
117	Cc1cccc(C(C(=O)N2CCCN(C(=O)C3CC3)CC2)N(C)C)c1 (stereo not drawn)	-2.8
118	C=CCn1c(-c2c(-c3ccccc3)ncn2CCc2cnc[nH]2)nc2ccccc21	-2.9
119	CCOc1ccc(Nc2nc(-c3nnc(-c4cccc(C)c4)o3)nc3ccccc23)cc1	36.0
120	C[C@@H]1C[C@@H]2CN(S(=O)(=O)c3ccc(F)cc3)C[C@@H]2O1	4.9

# Filtered by structure, those above containing two or more sulfur atoms.
no.	SMILES	Tgondii IFNg
7	Cn1c(SCc2ccc(-c3csnn3)cc2)nnc1C(F)(F)F	-40.5
34	Cc1cc(F)ccc1S(=O)(=O)NCCc1csc(-c2ccc(F)cc2)n1	-33.0
54	Cc1nc(NS(C)(=O)=O)sc1C(=O)N[C@@H]1CCC(=O)N[C@H]1c1cccs1	22.9
84	Cc1cc(C)c(S(=O)(=O)N2CCc3nc(-c4ccccc4)sc3C2)cc1C	-89.2*

# Continued:
no.	SMILES	Tgondii IFNg
121	COc1ccc(C(=O)N(Cc2cccc(C)c2)C2(C(=O)NCc3ccccc3)CCN(C(C)=O)CC2)cc1	-48.8
122	CN(C)C(=O)N1C[C@@H](OCc2cccnc2)[C@@H]2OCCC[C@@H]21	-0.4
123	COC(C)c1ccc(-c2cc(C(=O)O)cc(S(=O)(=O)N3CCOCC3)c2)cc1 (stereo not drawn)	7.8
124	Cc1nc(-c2ccc(Cl)cc2)sc1CCNC(=O)C(=O)Nc1ccc2c(c1)OCCO2	65.2
